MLL AF4-AF9 inh – inhibitors of human MLL-AF4/AF9 interaction | P42568 | actives 0.47% (n = 350,000) | AID 651704 | inhibition, % at 10 µM | AlphaScreen, biotin-AF4 peptide binding to FLAG-AF9;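 active = every replicate reaching a set inhibition limit, whatever the replicate mean, cut at about 25% in these data; inconclusive = mean inhibition reaches that limit but some replicates miss it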;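 also: 0% = plate neutral control median and 100% = total signal loss; the record names both 10 and 1 µM as test concentration; the first replicate is given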
Bfl-1 A1 inh – inhibitors of the anti-apoptotic protein A1, read as caspase activation. AID 2462. caspase activation, % (concentration not given with the values). actives 0.066% (n = 330,000). MEF A1-2A-BIM cells, Caspase-Glo 3/7 luminescence, 3 h; percent of clofoctol response, vehicle zero;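 active = over half of replicate activation scores above 10%, or exactly half above 10 with the replicate mean above 10; inconclusive = replicate mean below 10 yet half the replicates above 10; inactive = over half of replicates below 10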;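 also: wells of about 30 µL received 50 nL stock; many hits fall short of the cut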
LANA-H2A inh – blocks KSHV LANA binding to histone H2A/H2B; actives 0.6% (n = 320,000); inhibition, % (test concentration not listed); Q9QR71; cell-free LANA-H2A/H2B peptide, fluorescence polarization; in the data active = inhibition mostly above about 10%, no sharp cut-off; inactive = mostly below about 6.7%;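 also: stock transfer was 7.5 nL into about 10 µL; 0% = median of vehicle wells and 100% = median of positive control wells; one replicate is shown; the record names a cut of 25% in any replicate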
Target sequence (Q9QR71 whole entry, looked up): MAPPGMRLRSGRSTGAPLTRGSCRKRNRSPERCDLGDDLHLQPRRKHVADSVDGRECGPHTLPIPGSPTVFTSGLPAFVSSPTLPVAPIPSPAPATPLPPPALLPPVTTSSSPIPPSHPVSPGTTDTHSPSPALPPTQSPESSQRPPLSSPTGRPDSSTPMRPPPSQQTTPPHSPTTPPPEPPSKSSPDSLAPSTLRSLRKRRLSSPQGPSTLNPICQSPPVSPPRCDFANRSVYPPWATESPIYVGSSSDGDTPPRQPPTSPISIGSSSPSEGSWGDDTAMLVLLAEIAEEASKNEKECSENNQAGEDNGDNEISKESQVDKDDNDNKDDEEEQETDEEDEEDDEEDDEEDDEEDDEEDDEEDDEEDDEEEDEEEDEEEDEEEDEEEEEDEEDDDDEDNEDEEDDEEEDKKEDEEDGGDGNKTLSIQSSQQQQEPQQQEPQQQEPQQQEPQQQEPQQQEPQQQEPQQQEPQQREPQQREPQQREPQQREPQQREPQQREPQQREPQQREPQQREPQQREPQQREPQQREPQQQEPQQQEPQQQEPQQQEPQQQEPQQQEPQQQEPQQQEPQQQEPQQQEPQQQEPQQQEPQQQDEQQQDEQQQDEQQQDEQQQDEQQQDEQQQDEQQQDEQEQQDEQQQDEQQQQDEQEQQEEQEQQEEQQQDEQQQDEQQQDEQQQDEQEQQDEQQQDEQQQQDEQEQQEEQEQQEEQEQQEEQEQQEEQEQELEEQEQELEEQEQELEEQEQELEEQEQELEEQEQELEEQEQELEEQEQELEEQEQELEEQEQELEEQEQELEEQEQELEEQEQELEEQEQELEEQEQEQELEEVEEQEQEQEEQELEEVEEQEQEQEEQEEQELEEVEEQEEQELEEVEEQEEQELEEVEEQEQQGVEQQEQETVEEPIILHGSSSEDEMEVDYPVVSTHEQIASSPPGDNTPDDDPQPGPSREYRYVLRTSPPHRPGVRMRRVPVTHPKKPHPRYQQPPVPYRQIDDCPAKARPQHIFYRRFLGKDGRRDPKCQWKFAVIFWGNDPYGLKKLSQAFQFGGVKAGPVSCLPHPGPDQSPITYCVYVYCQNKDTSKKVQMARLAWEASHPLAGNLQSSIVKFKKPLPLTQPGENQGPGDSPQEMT
Vif TR-FRET – inhibitors of Vif binding to APOBEC3G peptide, primary screen, biochemical, TR-FRET, GST-Vif 1-94, biotin-A3G peptide, dose response retest (AID 1117319); TR-FRET GST-Vif / biotin-A3G peptide binding; higher % means a stronger effect; test concentration not given here; strong numbers were not always called active; one-dose inhibition, %; IC50 in µM for titrated hits; actives 0.57% (n = 260,000);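 active = above the screen mean plus three standard deviations and confirmed in dose response; inconclusive = results disagree or hit not tested in dose response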;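 also: Vif residues 1-94 fused to GST binding biotinylated APOBEC3G peptide 110-148; 0% = full assay without inhibitor and 100% = GST in place of GST-Vif; retest series ran down from 100 µM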
Calb FLC – C. albicans growth modulation with fluconazole. C. albicans CaCi-2 (fluconazole-resistant clinical isolate) + fluconazole, Alamar Blue growth, 48 h. growth inhibition, % (test concentration not listed). actives 0.57% (n = 300,000);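 active = most replicates above 75%; inconclusive = exactly half above 75%; inactive = most below 75%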;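 also: all wells also contain fluconazole at 8 µg/ml as a sub-toxic cotreatment; 0% = median of DMSO wells and 100% = median of geldanamycin control wells; wells of about 8 µL received 7.5 nL stock; the first replicate is given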
T cruzi inh – blocks replication of Trypanosoma cruzi. actives 1.4% (n = 300,000). AID 1885. inhibition, % (concentration not given with the values). T. cruzi beta-gal in NIH3T3, luminescence, 90 h;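 active = mean inhibition across valid replicates above about 55%, limit read from the data; inconclusive = mean below that limit but half or more replicates reach it; inactive = mean below it, under half of replicates reach it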;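 also: signal also drops with host cell toxicity which is not excluded here; 0% = plate median of DMSO wells and 100% = zero luminescence signal; higher percent means less beta-gal luminescence so fewer parasites; stock transfer was 50 nL into about 50 µL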
RanGTP-Impb inh – disruptors of Ran-importin-beta complex formation – biochemical, FRET, CFP-Ran, YFP-importin-beta, homogeneous, primary screen. cell-free CFP-Ran/YFP-importin-beta FRET ratio. inhibition, % (concentration not given with the values). actives 1.1% (n = 300,000);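 active = most replicates above 15%; inconclusive = exactly half above 15%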;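 also: 0% = DMSO wells and 100% = Ran loaded with GDP instead of GTP; wells of about 40 µL received 100 nL stock; the first replicate is given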
Beta apoptosis – beta cell apoptosis inhibition. INS-1E cytokine-induced death, ATP luminescence, 48 h; percent of positive-control rescue, neutral wells zero. protection from apoptosis, % (test concentration not listed). actives 0.8% (n = 300,000). AID 435005;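 active = all replicates at 75% or more, or half of them and the mean; inconclusive = half reach 75% but not the mean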;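 also: 0% = cytokine-treated negative control wells and 100% = positive control rescue; higher means more ATP so stronger rescue from cytokine killing; wells of about 40 µL received 100 nL stock; the first replicate is given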
The depositor's hits bear a star; ! = not active in a repeat.

What do the screens show for `CC(=O)C(Sc1ncnc2sc3c(c12)CCCC3)C(C)=O`?
MLL AF4-AF9 inh: -2.1; Bfl-1 A1 inh: 0.6; LANA-H2A inh: -6.7; Vif TR-FRET: -4.5%; Calb FLC: 21.9; T cruzi inh: 8.5; RanGTP-Impb inh: -3.0; Beta apoptosis: -6.8

What do the screens show for `Cc1ccccc1NC(=S)NNC(=O)c1cccnc1`?
Bfl-1 A1 inh: 1.0; LANA-H2A inh: 0.6; Vif TR-FRET: 25.7%; Calb FLC: 4.2; T cruzi inh: -11.7; RanGTP-Impb inh: 0.0; Beta apoptosis: -5.6

What do the screens show for `O=c1[nH][nH]c(-c2ccccc2)c1C=Nc1ccccc1`?
Bfl-1 A1 inh: 0.8; LANA-H2A inh: -4.2; Vif TR-FRET: -5.0%; Calb FLC: 2.5; T cruzi inh: -2.6; RanGTP-Impb inh: 3.8; Beta apoptosis: -3.1

Results for N#CCSc1ncnc2c1cnn2CCO ?
Bfl-1 A1 inh: -0.6; LANA-H2A inh: 4.1; Vif TR-FRET: 9.0%; Calb FLC: 0.2; T cruzi inh: -16.5; RanGTP-Impb inh: -0.9; Beta apoptosis: 1.5

What do the screens show for `O=C(CSc1n[nH]c(-c2cc(Cl)ccc2Cl)n1)NCCN1C(=O)CSC1=O`?
Bfl-1 A1 inh: 0.1; LANA-H2A inh: 1.7; Vif TR-FRET: -2.2%; Calb FLC: -14.7; T cruzi inh: -3.0; RanGTP-Impb inh: 4.5; Beta apoptosis: 2.7

What do the screens show for `CC(NC(=O)COC(=O)/C=C/c1ccc(Cl)cc1)c1ccccc1` (stereo not drawn)?
MLL AF4-AF9 inh: -1.5; Bfl-1 A1 inh: 0.9; LANA-H2A inh: 6.7; Vif TR-FRET: -4.2%; Calb FLC: 1.0; T cruzi inh: -23.7; RanGTP-Impb inh: 2.2; Beta apoptosis: -4.0

How did Nc1nc2c(-c3ccc(Br)cc3)nnn2c2ccccc12 do in these assays?
MLL AF4-AF9 inh: -1.0; Bfl-1 A1 inh: -3.5; LANA-H2A inh: -3.0; Vif TR-FRET: -9.4%; Calb FLC: 2.0; T cruzi inh: -3.6; RanGTP-Impb inh: 1.2; Beta apoptosis: 8.5

Results for COc1ccc(CCNC(=O)CC2Nc3ccccc3NC2=O)cc1 (stereo not drawn) ?
Bfl-1 A1 inh: -0.2; LANA-H2A inh: 2.3; Vif TR-FRET: 21.6%; Calb FLC: -22.7; T cruzi inh: -6.1; RanGTP-Impb inh: 4.5; Beta apoptosis: -8.2

What do the screens show for `CCC1(C)Cc2c(sc3c2c(=O)n(C)c2nnc(SCCc4ccccc4)n32)CO1` (stereo not drawn)?
Bfl-1 A1 inh: 1.5; LANA-H2A inh: -1.3; Vif TR-FRET: 13.4%; Calb FLC: -1.3; T cruzi inh: 26.8; RanGTP-Impb inh: 6.4; Beta apoptosis: -4.4

How did CCc1ccc(N2C(=O)c3ccc4c5c(ccc(c35)C2=O)CC4)cc1 do in these assays?
Bfl-1 A1 inh: -0.7; LANA-H2A inh: 1.5; Vif TR-FRET: -0.2%; Calb FLC: -12.4; T cruzi inh: -14.1; RanGTP-Impb inh: -2.0; Beta apoptosis: -2.4

What do the screens show for `Cc1cccc(C)c1NC(=O)CNC(=O)C(C)NC(C)c1ccccc1Br` (stereo not drawn)?
MLL AF4-AF9 inh: -0.7; Bfl-1 A1 inh: 0.4; LANA-H2A inh: -7.7; Beta apoptosis: -2.1

What do the screens show for `CCC(CC)C(=O)Nc1cc(C(=O)OC)cc(C(=O)OC)c1`?
Bfl-1 A1 inh: 0.6; LANA-H2A inh: 4.6; Vif TR-FRET: 0.6%; Calb FLC: -0.6; T cruzi inh: -5.4; RanGTP-Impb inh: -4.6; Beta apoptosis: -1.8

How did Cc1noc(C)c1CSCC(=O)NCCN1C(=O)S/C(=C\c2ccccc2F)C1=O do in these assays?
MLL AF4-AF9 inh: -14.8; Bfl-1 A1 inh: inconclusive; LANA-H2A inh: -5.4; Vif TR-FRET: 9.8%; Calb FLC: -0.9; T cruzi inh: -1.9; RanGTP-Impb inh: 1.3; Beta apoptosis: 3.8

How did CC(C)c1ccc(-c2csc(NC(=O)c3cccs3)c2C(=O)O)cc1 do in these assays?
MLL AF4-AF9 inh: 4.8; Bfl-1 A1 inh: -3.1; LANA-H2A inh: 1.6; Calb FLC: 10.1; T cruzi inh: -4.8; RanGTP-Impb inh: -3.4; Beta apoptosis: -1.1

What do the screens show for `S=C(NC1CCCCC1)N1CCN(C/C=C/c2ccccc2)CC1`?
Bfl-1 A1 inh: -1.4; LANA-H2A inh: -0.2; Calb FLC: 13.6; T cruzi inh: -6.0; RanGTP-Impb inh: 7.8; Beta apoptosis: 3.3

Results for COC(=O)CCc1c(C)c(C#N)c2nc3ccccc3n2c1N1CCCC1 ?
Bfl-1 A1 inh: 1.1; LANA-H2A inh: 4.9; Vif TR-FRET: inconclusive; Calb FLC: -18.4; T cruzi inh: 1.8; RanGTP-Impb inh: 17.2*; Beta apoptosis: 6.7

Results for CCCCn1c(CCNC(=O)CC)nc2ccccc21 ?
MLL AF4-AF9 inh: 3.8; Bfl-1 A1 inh: 0.4; LANA-H2A inh: 6.0; Vif TR-FRET: 72.3%; Calb FLC: 10.6; T cruzi inh: 3.4; RanGTP-Impb inh: 3.0; Beta apoptosis: -3.1

Results for CC(=O)Nc1ccc([C@H]2[C@H](C)CC[C@H]3C(=O)N4[C@@H](CC[C@@H](C)[C@@H]4c4ccc(NC(C)=O)cc4)C(=O)N32)cc1 ?
Bfl-1 A1 inh: 0.3; LANA-H2A inh: -4.1; Vif TR-FRET: -6.9%; Calb FLC: 3.8; T cruzi inh: -8.3; RanGTP-Impb inh: 1.0; Beta apoptosis: 0.4

How did O=C(NC(=S)Nc1ccc(CN2CCCCC2)cc1)c1cc2ccccc2o1 do in these assays?
MLL AF4-AF9 inh: 1.8; Bfl-1 A1 inh: 0.5; LANA-H2A inh: -1.0; Vif TR-FRET: -7.0%; Calb FLC: 29.8; T cruzi inh: 27.4; RanGTP-Impb inh: -1.6; Beta apoptosis: -9.2

How did Cc1nnc2sc(-c3cccc(F)c3)nn2c1=O do in these assays?
MLL AF4-AF9 inh: 0.1; Bfl-1 A1 inh: -8.3; LANA-H2A inh: 2.4; Vif TR-FRET: 0.7%; Calb FLC: 7.7; T cruzi inh: 4.4; RanGTP-Impb inh: 0.0; Beta apoptosis: 0.5

What do the screens show for `CC(Sc1nnnn1C1CCCC1)C(=O)Nc1cccc(S(=O)(=O)N2CCOCC2)c1` (stereo not drawn)?
MLL AF4-AF9 inh: 3.3; Bfl-1 A1 inh: 1.7; LANA-H2A inh: 0.2; Vif TR-FRET: 0.8%; Beta apoptosis: 1.8

How did NS(=O)(=O)c1ccc(CCNc2ncnc3c2c(-c2ccccc2)cn3-c2ccc(F)cc2)cc1 do in these assays?
Bfl-1 A1 inh: 0.1; LANA-H2A inh: -0.1; Vif TR-FRET: inconclusive; Calb FLC: 9.0; T cruzi inh: 24.4; RanGTP-Impb inh: 4.3; Beta apoptosis: 18.0

What do the screens show for `C[C@H]1CC[C@@]2(O[C@@H](CCO)C[C@H](O)[C@H]2O)O1`?
MLL AF4-AF9 inh: -2.4; Bfl-1 A1 inh: -0.4; LANA-H2A inh: 3.1; Calb FLC: -5.2; T cruzi inh: -9.4; RanGTP-Impb inh: -2.3; Beta apoptosis: -6.2

What do the screens show for `COc1ccc(C)cc1S(=O)(=O)Nc1cccc(-c2cn3cccnc3n2)c1`?
MLL AF4-AF9 inh: 0.5; Bfl-1 A1 inh: 0.1; LANA-H2A inh: 1.0; Calb FLC: -8.7; T cruzi inh: 12.1; RanGTP-Impb inh: inconclusive; Beta apoptosis: -3.4

How did CC1CCCC(NC(=O)CSc2n[nH]c(=O)n2Cc2ccccc2)C1C (stereo not drawn) do in these assays?
MLL AF4-AF9 inh: 4.0; Bfl-1 A1 inh: 0.4; LANA-H2A inh: 2.3; Beta apoptosis: 4.3

What do the screens show for `COc1ccc(N2CCN(C(=O)CCNS(=O)(=O)c3cccs3)CC2)cc1`?
Bfl-1 A1 inh: 0.1; LANA-H2A inh: -3.6; Vif TR-FRET: 12.3%; Calb FLC: -5.8; T cruzi inh: -19.4; RanGTP-Impb inh: 6.5; Beta apoptosis: -6.1

What do the screens show for `COc1ccc(Nc2ccc([N+](=O)[O-])cc2[N+](=O)[O-])cc1`?
MLL AF4-AF9 inh: 11.3; Bfl-1 A1 inh: 0.1; LANA-H2A inh: 1.6; Vif TR-FRET: -7.0%; Calb FLC: 38.1; T cruzi inh: 1.1; RanGTP-Impb inh: -3.1; Beta apoptosis: 1.9

Results for Cc1noc(/C=C/c2ccco2)c1S(=O)(=O)N1CCC(C(=O)NCc2ccco2)CC1 ?
Bfl-1 A1 inh: -0.5; LANA-H2A inh: 1.1; Vif TR-FRET: 1.84µM*!; Calb FLC: -2.2; T cruzi inh: 19.9; RanGTP-Impb inh: -1.2; Beta apoptosis: 2.0

What do the screens show for `CC(=O)NCCC(=O)Nc1ccc(C(N)=O)cc1`?
MLL AF4-AF9 inh: 0.2; Bfl-1 A1 inh: 0.3; LANA-H2A inh: -0.9; Vif TR-FRET: -4.2%; Calb FLC: -13.1; T cruzi inh: -19.2; RanGTP-Impb inh: 0.9

What do the screens show for `Cc1ccc(CN2CCSCC2)cc1`?
MLL AF4-AF9 inh: -0.6; Bfl-1 A1 inh: 1.1; LANA-H2A inh: 2.9; Calb FLC: 2.4; T cruzi inh: -0.1; RanGTP-Impb inh: 3.9; Beta apoptosis: -3.3

How did NNC(=O)Cn1c(SCc2ccccc2)nc2ccccc21 do in these assays?
Bfl-1 A1 inh: -0.5; LANA-H2A inh: -3.1; Vif TR-FRET: 5.9%; Calb FLC: -3.6; T cruzi inh: 0.7; RanGTP-Impb inh: 1.9; Beta apoptosis: -2.7

What do the screens show for `CCOC(=O)Cn1c(=O)c2c(nc3n2CCCCN3c2ccc(C)cc2)n(C)c1=O`?
Bfl-1 A1 inh: 0.2; LANA-H2A inh: 3.4; Vif TR-FRET: 3.3%; Calb FLC: 11.9; T cruzi inh: 31.7; RanGTP-Impb inh: 1.3; Beta apoptosis: -0.8

How did COc1ccc(NC(=O)CSc2nnc(Cc3ccc(C)cc3)c(=O)n2N)cc1OC do in these assays?
MLL AF4-AF9 inh: 3.8; Bfl-1 A1 inh: 0.3; LANA-H2A inh: -2.4; Vif TR-FRET: -1.5%; Calb FLC: -0.3; T cruzi inh: 7.2; RanGTP-Impb inh: 1.1

Results for Cc1ccc(-c2cn(CCN)c(-c3ccncc3)n2)cc1 ?
MLL AF4-AF9 inh: 7.4; Bfl-1 A1 inh: 0.3; LANA-H2A inh: 2.3; Beta apoptosis: -5.0

What do the screens show for `CCCn1c(N)c(N(CCOC)C(=O)c2cccc(Cl)c2)c(=O)[nH]c1=O`?
MLL AF4-AF9 inh: -0.3; Bfl-1 A1 inh: 0.3; LANA-H2A inh: -1.0; Vif TR-FRET: 6.5%; Calb FLC: -2.4; T cruzi inh: -3.6; RanGTP-Impb inh: 0.5; Beta apoptosis: 3.0

Results for OCCCCNc1cccc2ccccc12 ?
MLL AF4-AF9 inh: 16.3; Bfl-1 A1 inh: -0.7; LANA-H2A inh: 2.8; Vif TR-FRET: 19.1%; Calb FLC: -8.9; T cruzi inh: -10.7; RanGTP-Impb inh: 0.5; Beta apoptosis: 37.7

What do the screens show for `CCC(C)NC(=O)C1=CCN(S(=O)(=O)c2ccc(C)cc2)CC1` (stereo not drawn)?
MLL AF4-AF9 inh: 1.2; Bfl-1 A1 inh: 0.5; LANA-H2A inh: 0.4; Vif TR-FRET: -6.6%; Calb FLC: -2.4; T cruzi inh: -6.0; RanGTP-Impb inh: 7.7; Beta apoptosis: -2.4
